# H5N1 antiviral = MDCK cell protection from H5N1 avian flu; cytopathic effect, luminescence, 72 h; hits give high values; no value below 0 was filed and about half of the inactive calls have no number; reference of the scale not given here; inhibition, % at 50 µM; 96,000 tested, 0.07% active; AID 740; in the data active means inhibition above about 25%
# The depositor's hits bear a star; i = inactive. An excerpt; count on the stated rates, not on these rows.
SMILES,H5N1 antiviral
O=C(O)COc1ccccc1Cc1ccccc1,0.2
N#Cc1cn(CC(=O)O)c2ccccc12,i
COc1ccc(NC(=O)CCCCn2c(=O)[nH]c3ccccc3c2=O)cc1,1.0
CCOC(=O)N1CCC(NC(=O)Cn2cc3c(n2)CCC(C)C3)CC1 (configuration not stated),i
O=C1NN=C(c2ccc(Cl)cc2)CC1c1cccc(Cl)c1 (configuration not stated),i
COc1ccc(NC(=O)C2CCCN2S(=O)(=O)c2ccc(F)cc2)cc1 (configuration not stated),1.0
OC1(c2ccc(F)cc2)CC2CCC(C1)N2Cc1nnnn1C1CCCCC1 (configuration not stated),3.8
COC(=O)c1ccccc1NC(=O)c1ccccc1SC,i
COc1cccc(N2C(=O)CC(N3CCc4ccccc43)C2=O)c1 (configuration not stated),i
COc1ccc(N(CC(=O)Nc2ccccc2SC)S(C)(=O)=O)cc1OC,0.3
CC(C)C(NC(=O)OCc1ccccc1)C(=O)NCC(=O)OC(C)(C)C (configuration not stated),0.2
CCNC(=S)NC1CC2CCCC(C1)N2Cc1ccco1 (configuration not stated),0.5
CCC(=O)NCCSc1c[nH]c2ccccc12,0.2
CC(C(=O)O)N1C(=O)CSC1=S (configuration not stated),i
CCOC(=O)c1ccc(NS(=O)(=O)c2cnc[nH]2)cc1,i
CCN(CC)CCCN=C(C)c1c(O)n(C2CCCCC2)c(=O)[nH]c1=O,i
O=C(CCC(=O)N(CC(=O)NC1CCCC1)Cc1ccc2c(c1)OCO2)Nc1ccccn1,2.2
CCCN(CCO)Cc1cccc(Oc2ccccc2)c1,1.2
Cc1ccccc1Nc1nc(N)nc(COC(=O)C(NC(=O)c2ccco2)C(C)C)n1 (configuration not stated),i
CCCCCCn1c2c(c(=N)c3c1CCC3)CCC2,i
CCSc1nc(C2CC2)cc(-c2cccs2)c1C#N,i
N#C/C=C(/N)c1ccc(Br)cc1,i
Cc1cc(C)c2cc(C(c3nnnn3CC3CCCO3)N3CCN4CCCC4C3)c(=O)[nH]c2c1 (configuration not stated),0.1
CC(=O)CCN1CCOCC1,i
CN(C)C(=O)CSc1nnc(Cc2ccc([N+](=O)[O-])cc2)o1,4.1
SMILES,H5N1 antiviral
Cc1ccccc1NC(=O)C(C)c1cccc(C(=O)c2ccccc2)c1 (configuration not stated),0.2
CCC(Oc1ccccc1)C(=O)Nc1ccc(S(=O)(=O)Nc2cnc3ccccc3n2)cc1 (configuration not stated),0.6
Cc1ccc(-c2nc(N/N=C/c3cccc([N+](=O)[O-])c3)c3ccccc3n2)cc1,i
O=[N+]([O-])c1ccc(N2CCNCC2)cc1NCC1CCCO1 (configuration not stated),i
COC(=O)c1sccc1NC(=O)c1ccoc1C,0.9
CC(C)CNS(=O)(=O)c1ccc(CCC(=O)N2CCN(Cc3ccccc3)CC2)cc1,i
CCn1c(-c2nonc2NC(=O)c2ccccc2)nc2ccccc21,i
O=S(=O)(Nc1ccc2c(c1)OCCO2)c1cccs1,i
N#C/C=C(/N)N1CCN(c2ccc(Cl)c(Cl)c2)CC1,i
CCOc1ccc(-c2n[nH]c(C)c2Oc2ccccc2OC)c(O)c1,0.1
CCCCSc1nnc(-c2ccccc2N)c(=O)[nH]1,1.7
COc1ccc(Nc2oc(-c3ccc(Cl)cc3)nc2C#N)cc1,i
COCc1nn2c(N)c(C#N)cnc2c1-c1ccccc1,0.5
O=C(CSc1ccc(Cl)cc1)c1ccco1,i
Cc1ccc(C(=O)Nc2ccccc2-c2ccccc2)cc1S(=O)(=O)Nc1cccc(C)c1C,i
CC(=O)OC1(c2ccc(C)cc2)CN2CCC1c1ccccc12 (configuration not stated),0.3
O=C(CCNC(=O)c1ccccc1Cl)Nc1ccc2c(c1)OCO2,i
C/C(N)=C(/C#N)C(=O)CSc1nnnn1-c1ccc(C)cc1C,2.0
CCOC(=O)c1c[nH]c2c3c(ccc2c1=O)CCCC3,0.1
CCCC(=O)Nc1sc(C)c(-c2ccc(C(C)CC)cc2)c1C#N (configuration not stated),i
CCc1nc2ccccc2c(=O)n1NC(=O)c1c(O)c2ccccc2[nH]c1=O,i
O=C(NCCc1ccccn1)c1ccc(S(=O)(=O)N2CCCCCC2)cc1,0.7
O=C1C=C(O)CC(c2ccco2)C1 (configuration not stated),i
Cc1ccc(C(=O)O)c(C(=O)Nc2nc(C)cs2)c1,i
COC(=O)c1[nH]c2cc(OC)ccc2c1NC(=O)c1ccc2c(c1)OCO2,1.4

# For reference, part of the list above:
SMILES,H5N1 antiviral
O=[N+]([O-])c1ccc(N2CCNCC2)cc1NCC1CCCO1 (configuration not stated),i
COC(=O)c1sccc1NC(=O)c1ccoc1C,0.9
CC(C)CNS(=O)(=O)c1ccc(CCC(=O)N2CCN(Cc3ccccc3)CC2)cc1,i
CCn1c(-c2nonc2NC(=O)c2ccccc2)nc2ccccc21,i
O=S(=O)(Nc1ccc2c(c1)OCCO2)c1cccs1,i
N#C/C=C(/N)N1CCN(c2ccc(Cl)c(Cl)c2)CC1,i
CCOc1ccc(-c2n[nH]c(C)c2Oc2ccccc2OC)c(O)c1,0.1
CCCCSc1nnc(-c2ccccc2N)c(=O)[nH]1,1.7
COc1ccc(Nc2oc(-c3ccc(Cl)cc3)nc2C#N)cc1,i
COCc1nn2c(N)c(C#N)cnc2c1-c1ccccc1,0.5
O=C(CSc1ccc(Cl)cc1)c1ccco1,i
Cc1ccc(C(=O)Nc2ccccc2-c2ccccc2)cc1S(=O)(=O)Nc1cccc(C)c1C,i
CC(=O)OC1(c2ccc(C)cc2)CN2CCC1c1ccccc12 (configuration not stated),0.3
O=C(CCNC(=O)c1ccccc1Cl)Nc1ccc2c(c1)OCO2,i
C/C(N)=C(/C#N)C(=O)CSc1nnnn1-c1ccc(C)cc1C,2.0
CCOC(=O)c1c[nH]c2c3c(ccc2c1=O)CCCC3,0.1
CCCC(=O)Nc1sc(C)c(-c2ccc(C(C)CC)cc2)c1C#N (configuration not stated),i
CCc1nc2ccccc2c(=O)n1NC(=O)c1c(O)c2ccccc2[nH]c1=O,i
O=C(NCCc1ccccn1)c1ccc(S(=O)(=O)N2CCCCCC2)cc1,0.7
O=C1C=C(O)CC(c2ccco2)C1 (configuration not stated),i
Cc1ccc(C(=O)O)c(C(=O)Nc2nc(C)cs2)c1,i
COC(=O)c1[nH]c2cc(OC)ccc2c1NC(=O)c1ccc2c(c1)OCO2,1.4

# Going on with the list:
SMILES,H5N1 antiviral
CCn1c(C)cc2c(c1=O)C(c1ccccc1)C(C(=O)OC)=C(N)O2 (configuration not stated),0.1
CC(=O)C1=C(C)NC(SCC(N)=O)=C(C#N)C1c1sccc1C (configuration not stated),0.0
COCc1cc(C)nc2sc(C(=O)OC(C)C)c(N)c12,0.9
Cc1ccc(C)n1-c1sccc1C(=O)O,3.5
CCOC(=O)N1CCC(Nc2c(N3CCN(c4cccc(C(F)(F)F)c4)CC3)c(=O)c2=O)CC1,i
Cn1c(-c2c(N)n(CCc3ccccc3)c3nc4ccccc4nc23)nc2ccccc21,i
Cc1cc(NC(=O)c2oc3ccccc3c2C)ccc1-n1cnnn1,i
NCCCN1CCOCC1,i
Cc1ccc(C(=O)N/N=C/c2cc(C)n(-c3ccc(Br)cc3)c2C)cc1[N+](=O)[O-],3.9
O=C(CN1CCOCC1)N1CCCc2c1c(=O)oc1ccc(OCc3ccccc3)cc21,1.1
COC(=O)c1c(C)n(Cc2ccco2)c2ccc(O)cc12,i
COc1ccc(N=C(C)c2c(O)n(C3CCCCC3)c(=O)[nH]c2=O)c(OC)c1,i
O=C(NCCc1ccccc1)C(=O)NCC1CCCO1 (configuration not stated),i
CCS(=O)(=O)N1CCN(Cc2nc3ccccc3c(=O)[nH]2)CC1,0.3
CCOC(=O)c1cnc(-n2nc(C)cc2C)nc1NCc1ccc2c(c1)OCO2,0.8
NS(=O)(=O)c1ccc(N2N=C(c3ccc(Br)cc3)CC2c2ccc(F)cc2)cc1 (configuration not stated),i
Cc1c(CCOC(=O)C2C3CC4CC(C3)CC2C4)sc[n+]1CC(=O)c1ccc(Br)cc1 (configuration not stated),i
Cc1ccc(N2C(=O)CC(c3ccsc3)C3=C2CC(C)(C)CC3=O)cc1 (configuration not stated),i
COc1ccc(CNC(=O)c2noc3c2CCCCC3)cc1,0.1
COc1ccc(/C(O)=C2/C(=O)C(=O)N(CCN(C)C)C2c2ccc(OC)c(OC)c2)c(C)c1 (configuration not stated),0.3
CCn1c(=O)n(CC(=O)N2CCN(c3ccccc3F)CC2)c(=O)c2ccccc21,i
COc1cc(OC)c(NC(=O)CCc2nc(-c3cccs3)no2)cc1Cl,1.1
CCOc1ccc2nc(NC(NC(=O)CC)(C(=O)OC)C(F)(F)F)sc2c1 (configuration not stated),i
O=C1CC(=O)N(CCNc2ncc(C(F)(F)F)cc2Cl)C(=O)N1,i
O=C(O)CCc1ccc(-c2cccs2)n1NC(=O)c1ccccc1Br,i

# 2 of these compounds, reformatted.
Structure	H5N1 antiviral
Cc1ccccc1NC(=O)C(C)c1cccc(C(=O)c2ccccc2)c1 (configuration not stated)	0.2
CCC(Oc1ccccc1)C(=O)Nc1ccc(S(=O)(=O)Nc2cnc3ccccc3n2)cc1 (configuration not stated)	0.6

# Following part.
SMILES,H5N1 antiviral
Cc1ccc(OCC(=O)NNC(=O)c2cc3ccccc3o2)cc1C,i
CCN1CCN(S(=O)(=O)c2cc(OC)ccc2OC)CC1,0.3
COc1cccc(OCCOCCN(C)CCO)c1,i
CCOc1nnnc2c1sc1nc(N3CCOCC3)c3c(c12)CCCC3,2.0
CCN=C(Nc1cccc(F)c1)SC1CC(=O)N(c2ccc(OC)cc2)C1=O (configuration not stated),i
CCCCN(CCCC)c1ccc(C(=O)c2ccccc2C(=O)O)c(O)c1,2.4
COc1cc(OC)cc(C(=O)N[C@H](C(=O)Nc2ccccc2N2CCOCC2)C(C)C)c1,i
COC(=O)c1ccc(CSc2nc3ccccc3[nH]2)o1,0.6
CC(=O)Nc1ccc(S(=O)(=O)NCC2CCC(C(=O)N3CCN(c4ccccn4)CC3)CC2)cc1 (configuration not stated),0.7
OCCNc1ncnc2c1c(-c1ccccc1)c(-c1ccccc1)n2Cc1ccco1,0.6
CCCCNC(=O)CSc1nc2ccccc2c(=O)n1C1CCCC1,i
CN(C)c1ccc(-c2nnc(-c3ccc(S(=O)(=O)C(F)F)cc3)o2)cc1,0.4
CCC(CO)Nc1ncnc2c1cnn2-c1ccc(Cl)cc1 (configuration not stated),i
O=C(OCC(=O)N1CCOCC1)c1ccccc1SCC(=O)N1CCCC1,0.2
CC(=O)c1c(N2CCCCC2)nc(=O)n(-c2ccccc2)c1C,0.2
O=C(C(c1ccccc1)N1CCOCC1)N1CCOCC1 (configuration not stated),i
CCOc1ccccc1OCC(=O)Nc1nnc(COC)s1,0.4
CC(C)(C)C(=O)Nc1ccccc1C(=O)Nc1cc(Cl)ccc1Cl,0.4
Cc1cc(=O)n2nc(N3CCC(C(=O)NCc4cccnc4)CC3)sc2n1,2.4
CCOC(=O)c1c(NC(=O)CCc2ccc(CC)o2)sc(C)c1C,1.9
CCOC(=O)CCCCC(=O)c1[nH]c(=O)[nH]c1CSc1nc(-c2ccccc2)c(C#N)c(=O)[nH]1,5.1
COc1ccc(NC(=O)C2CCC(C)(C(=O)O)C2(C)C)cc1 (configuration not stated),0.2
CCOC(=O)C1/C(=N\O)CC(C)(O)C(C(=O)OCC)C1c1ccc(OC)c(OC)c1 (configuration not stated),i
COc1ccc(-c2nnc(SCC(=O)OC3CCCCC3)o2)cc1OC,1.4
Cc1ccccc1C(=O)N1CCC(C(=O)Nc2ccc3c(c2)OCCO3)CC1,i
SMILES,H5N1 antiviral
Cc1cccc(C(=O)Nc2ccccc2SCC2CSc3nc4ccccc4c(=O)n32)c1 (configuration not stated),10
O=C(Cn1nnc(-c2ccccc2)n1)NCc1ccc2c(c1)OCO2,i
COC(=O)C1=C(C)NC(=O)C1(Nc1nccs1)C(F)(F)F (configuration not stated),i
Cc1nc(Cl)c2oc3ccccc3c2n1,2.0
Cc1ccccc1-n1c(C)nnc1SCC(=O)NCC1CCCO1 (configuration not stated),0.1
O=C(CN1C(=O)NC2(CCCC2)C1=O)Nc1ccccc1F,0.1
Cc1nn2c(N3CCCC3)cc(C(C)C)nc2c1-c1ccccc1,0.1
CCOc1cccc(NC(=O)CC#N)c1,i
C=CCC(CC=C)(NC(=O)c1ccccc1C)c1ccccc1,0.2
CCOC(=O)N1CCC(N2Cc3cccc(C(=O)NCc4ccc(C)cc4)c3C2=O)CC1,1.5
N#Cc1ccc(Sc2nc3ccccc3[nH]2)cc1C#N,4.3
N#CCN1CCN(CC(=O)Nc2ccc(OCc3ccccc3)cc2)CC1,1.9
O=P(O)(O)c1ccccc1OCCCCCOc1ccccc1P(=O)(O)O,0.1
CCOC(=O)C1C(C#N)=C(N)OC(C)=C1c1ccncc1 (configuration not stated),i
COc1cc(C2CC(=O)NC3=C2C(=O)CC(C)(C)C3)ccc1O (configuration not stated),1.7
Brc1ccc(C2=Nn3c(nnc3-c3cccnc3)SC2)s1,0.2
CCOC(=O)N1CCC(NC(=O)CN2C(=O)CCSc3ccccc32)CC1,0.9
COc1ccc(S(=O)(=O)Oc2ccc3c(c2)O/C(=C\c2cccnc2)C3=O)cc1,1.5
CC1(C)CNC(=O)C=C(c2ccccc2)C1,0.2
CC(=O)Nc1ccc(S(=O)(=O)N2CCN(CC(=O)NC3CCCC3)CC2)cc1,3.2
CS(=O)(=O)Nc1ccc2c(c1)nc1n2CCOC1,0.3
CCOc1ccccc1OCCCOc1ccc([N+](=O)[O-])cc1Cl,0.5
O=C(Nc1ccc(Cl)cc1)Nc1ccc(N2CCOCC2)cc1,i
COc1ccc(C(=O)NCCSCc2ccccc2C)cc1,i
CCn1c(COc2cc(C)cc(C)c2)nnc1SCC(=O)N1CCN(c2ccccc2)CC1,1.7
SMILES,H5N1 antiviral
O=C(CCCn1c(=O)c2sccc2n(Cc2ccc(F)cc2)c1=O)NCc1ccco1,2.7
O=C(NCc1ccc2c(c1)OCO2)c1ccc(CN2CCc3ccccc3C2)cc1,1.6
Cc1occc1C(=O)NNC(=O)c1ccc(F)cc1,i
Cc1onc(-c2c(Cl)cccc2Cl)c1C(=O)Nc1ccc2c(c1)OCCO2,i
CCCCCC(C)n1[nH]c(=O)c2c(C)cc(C)nc21 (configuration not stated),1.0
CC(C)CC(=O)NC(NC(=S)Nc1sc2c(c1C#N)CCCC2)C(Cl)(Cl)Cl (configuration not stated),5.1
Cc1ccc2cccc(SCC(=O)N3CCOCC3)c2n1,3.3
CC1(c2ccccc2)NC(=O)N(CCN2C(=O)c3ccccc3C2=O)C1=O (configuration not stated),1.5
Cn1c(Cc2ccccc2)nnc1SCC(=O)Nc1ccccc1N1CCOCC1,0.4

# Bioassay records (PubChem BioAssay)
